# Screening results: PubChem, several laboratories
# Beta2AR agonist: activates human beta-2 adrenergic receptor causing internalization | P07550 | Am2.2-beta2AR cells, FAP receptor internalization, flow cytometry; reference of the scale not given here | response, % (concentration not given with the values) | actives 0.43% (n = 340,000) | AID 504454;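 active = response above a set limit, near 3 SD of response in nonfluorescent compounds, cut at about 42% in these data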;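 note: stock transfer was 100 nL into about 11 µL; a reference agonist was the positive control; negative values mostly stem from fluorescent compounds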
# Target sequence (P07550 whole entry, looked up): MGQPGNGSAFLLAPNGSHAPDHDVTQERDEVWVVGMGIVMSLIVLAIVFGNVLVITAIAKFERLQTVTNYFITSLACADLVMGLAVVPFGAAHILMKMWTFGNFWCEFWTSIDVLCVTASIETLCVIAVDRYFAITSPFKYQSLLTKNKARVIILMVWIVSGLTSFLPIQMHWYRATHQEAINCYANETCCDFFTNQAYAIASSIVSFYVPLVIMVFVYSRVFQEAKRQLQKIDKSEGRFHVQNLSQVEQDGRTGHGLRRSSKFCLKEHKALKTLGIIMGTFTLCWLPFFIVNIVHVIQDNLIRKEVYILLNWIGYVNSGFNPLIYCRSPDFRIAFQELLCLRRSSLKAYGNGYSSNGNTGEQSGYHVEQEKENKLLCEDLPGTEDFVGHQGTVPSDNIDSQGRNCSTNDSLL
# Vif TR-FRET: HIV-1 Vif–A3G interaction blockers – biochemical, TR-FRET, GST-Vif 1-94, biotin-A3G peptide, dose response retest, primary screen (AID 1117319); TR-FRET GST-Vif / biotin-A3G peptide binding; higher % means a stronger effect; test concentration not given here; strong numbers were not always called active; one-dose inhibition, %; IC50 in µM for titrated hits; actives 0.57% (n = 260,000);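 active = above the screen mean plus three standard deviations and confirmed in dose response; inconclusive = results disagree or hit not tested in dose response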;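 note: Vif residues 1-94 fused to GST binding biotinylated APOBEC3G peptide 110-148; 0% = full assay without inhibitor and 100% = GST in place of GST-Vif; retest series ran down from 100 µM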
# Ecoli growth: inhibitors of Escherichia coli growth; OD600 absorbance (test concentration not listed); actives 0.21% (n = 330,000); OD600, 23 h; active compounds read low;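 active = OD600 absorbance below the run mean of sample wells minus 3.6 SD, in any replicate, cut at about 0.56 in these data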;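 note: stock transfer was 300 nL into about 60 µL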
# LANA-H2A inh: blocks KSHV LANA binding to histone H2A/H2B | cell-free LANA-H2A/H2B peptide, fluorescence polarization | inhibition, % (test concentration not listed) | actives 0.6% (n = 320,000); in the data active = inhibition mostly above about 10%, no sharp cut-off; inactive = mostly below about 6.7%;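 note: stock transfer was 7.5 nL into about 10 µL; 0% = median of vehicle wells and 100% = median of positive control wells; one replicate is shown; the record names a cut of 25% in any replicate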
# HNF4A DNA FP: change in binding of human HNF4 alpha to DNA; P41235; HNF4a-FITC DNA binding, fluorescence polarization, 1 h; activity change, % at 10 µM; actives 0.3% (n = 360,000); AID 1224865; in the data active = activity change above about 30%, passing the limit was not always enough;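 note: controls were the assay level and a saturating level of protein; the project sought stronger binding though the title names inhibitors; some compounds called inactive have numbers as strong as hits; positive values seem to mean higher polarization but the record does not say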
# Target sequence (P41235 whole entry, looked up): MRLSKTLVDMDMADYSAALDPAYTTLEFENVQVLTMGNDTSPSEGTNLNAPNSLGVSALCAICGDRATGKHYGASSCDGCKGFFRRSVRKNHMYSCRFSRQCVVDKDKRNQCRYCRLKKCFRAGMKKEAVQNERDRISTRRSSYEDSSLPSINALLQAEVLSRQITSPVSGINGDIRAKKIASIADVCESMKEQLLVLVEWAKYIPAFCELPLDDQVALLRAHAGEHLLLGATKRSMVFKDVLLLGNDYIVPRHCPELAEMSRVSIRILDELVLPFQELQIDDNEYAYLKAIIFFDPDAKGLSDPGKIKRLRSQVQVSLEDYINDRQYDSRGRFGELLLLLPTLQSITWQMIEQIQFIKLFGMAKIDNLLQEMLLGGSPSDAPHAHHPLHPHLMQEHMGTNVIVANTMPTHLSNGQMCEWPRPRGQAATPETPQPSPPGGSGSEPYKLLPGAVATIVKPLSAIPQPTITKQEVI
# UCH37 inh: inhibitors of human deubiquitinating enzyme UCH37 | Q9Y5K5 | purified proteasome/UCH37, Ub-AMC cleavage fluorescence | inhibition, % (concentration not given with the values) | actives 0.33% (n = 330,000) | AID 588478;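 active = mean of two replicates above 20%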;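 note: 0% = compound-free wells with enzyme and 100% = wells lacking proteasome; stock transfer was 100 nL into about 20 µL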
#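 Schedule: 30 min plus 25 min, room temperature / Material: human UCH37 within purified proteasomes / Technique: AMC fluorescence intensity at 355/460 nm / Buffer or medium: pH 7.4 Tris-HCl (50 mM) with ovalbumin, ATP-MgCl2, DTT / Controls: wells without proteasome as full block, compound-free enzyme plus substrate as uninhibited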
# Bfl-1 A1 inh: inhibitors of the anti-apoptotic protein A1, read as caspase activation; MEF A1-2A-BIM cells, Caspase-Glo 3/7 luminescence, 3 h; percent of clofoctol response, vehicle zero; actives 0.066% (n = 330,000); caspase activation, % (no concentration beside the values);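 active = over half of replicate activation scores above 10%, or exactly half above 10 with the replicate mean above 10; inconclusive = replicate mean below 10 yet half the replicates above 10; inactive = over half of replicates below 10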;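 note: wells of about 30 µL received 50 nL stock; many hits fall short of the cut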
# * = called active by the depositor; ? = inconclusive; . = not tested or not shown; & = joins results of further samples.
SMILES,Beta2AR agonist,Vif TR-FRET,Ecoli growth,LANA-H2A inh,HNF4A DNA FP,UCH37 inh,Bfl-1 A1 inh
CCC1Cc2c(nc(N)c3c(N)nc(N4CCCCC4)c(C#N)c23)O1 (stereo unspecified),-1.7,6.8%,0.684,-2.1,-0.2,-172.0,0.9
CCCCN(C)C(=O)c1cn(CC)c2nc(C)ccc2c1=O,3.7,-1.6%,0.692,-2.8,-1.8,-0.2,-0.6
COc1ccc(S(=O)(=O)N2CCCCCC2)cc1C(=O)N(C)CC(=O)Nc1cc(C)ccc1C,-2.8,.,0.672,-9.4,5.8,-1.1,-3.4
CCOC(=O)COc1cc2c3c(c(=O)oc2cc1C)CCCC3,0.2,0.2%,0.679,3.2,-0.9,-4.4,0.3
Cc1c(C(=O)Nc2ccc(F)cc2)oc2ccc(S(=O)(=O)N3CC(C)CC(C)C3)cc12 (stereo unspecified),-1.2,-5.7%,0.687,1.6,-1.8,-0.9,0.1
COc1ccccc1-n1cc(-c2ccccc2)c2c(=S)nc[nH]c21,1.4,.,0.678,-4.6,0.5,4.2,1.0
O=C(Nc1ccccc1)C1=C[C@H](c2ccc3c(c2)OCO3)C[C@H](OCc2ccc(CO)cc2)O1,-4.7,.,.,-1.6,2.9,.,3.2
COC(=O)c1ccccc1NC(=O)C1CCCC1,0.7,0.55µM*,0.638,-1.5,1.5,-1.1,-0.5
Cc1cccc(C)c1OCCCCCNCCO,-0.2,-1.6%,0.642,0.7,1.3,1.7,-1.0
O=C(NCc1cccnc1)c1cccnc1-c1nc2ccccc2s1,5.9,-3.8%,0.686,2.6,-0.9,-0.5,-0.1
Cc1cc(C(F)(F)F)nc(SCC(=O)Nc2c(C)n(C)n(-c3ccccc3)c2=O)n1,-3.7,.,0.656,-6.2,-1.0,4.1,0.4
O=C(N1CCOCC1)N1CCC(n2nnc3cc(F)ccc32)CC1,10.3,-0.8%,0.72,0.8,-8.6,3.9,2.0
Cc1c(Cl)c(=O)n2c(=O)c(Cl)c(C)n12,5.5,-7.7%,0.717,5.3,-6.0,-133.8,-0.9
CC1(C)CC(=O)C(C=NC2CCCCC2)=C(O)C1,-4.2,27.8%,0.793,-4.2,0.6,6.0,-0.7
COC(=O)CCCC1=CC2=C(c3ccccc3)C(=O)C(C)(OC(=O)C3CCCC3)C(=O)C2=CN1CCCCO (stereo unspecified),1.7,20.6%,0.713,-2.1,-0.2,5.7,0.3
COc1cccc(N2CCN(S(=O)(=O)c3ccc4c(c3)CC(C)N4C(=O)C3CC3)CC2)c1 (stereo unspecified),-9.6,.,0.669,-5.8,1.0,4.8,-1.0
CCC(C)Nc1nc2c(c(=O)[nH]c(=O)n2C)n1CCOc1ccccc1 (stereo unspecified),34.3,-8.7%,0.685,-4.5,-1.4,4.0,0.0
COc1ccc(/C=C2\C(=O)ON=C2c2ccccc2)cc1,19.3,-0.9%,0.66,8.9,1.0,4.3,-6.8
Cc1ccc(C(=O)Nc2ccccc2C(=O)NCC2CCCO2)cc1 (stereo unspecified),3.8,.,0.693,1.3,-1.4,-0.1,-0.4
Cc1ccc(C)c(Cn2c3ccccc3c3cnn(CC(=O)NCc4ccccn4)c(=O)c32)c1,23.9,2.1%,0.723,3.1,-0.2,-3.0,1.3
CN1C(=O)C(C)(C)c2cc(S(=O)(=O)N3CCN(c4ccc(F)cc4)CC3)ccc21,-1.0,.,0.709,5.3,-2.6,5.1,-0.1
C#CCOCCOCCOCCNc1nc(N2CCN(C(=O)[C@H](CCCN=C(N)N)n3cc(C(N)[C@@H](C)CC)nn3)CC2)nc(N2CCN(C(=O)[C@H](CCC(=O)O)n3cc([C@@H](N)CCCCN)nn3)CC2)n1 (stereo partly specified),-7.9,.,.,-6.8,4.3,33.3*,0.1
C/C(N)=C(/C#N)C(=O)CSc1ncnc2ccccc12,0.2,-25.7%,0.728,3.2,5.6,6.3,-0.7
CCC(C)NC(=O)CN(C1CCCCC1)S(C)(=O)=O (stereo unspecified),-0.1,-0.2%,0.686,4.5,-2.6,2.8,0.3
O=C(CNC(=O)c1ccccc1)NCCc1ccc(O)c(O)c1,-2.7,.,.,12.9,1.3,.,0.0
COc1ccc(-c2cnc(N)n2CC2CCCO2)cc1 (stereo unspecified),5.4,9.1%,0.712,7.8,-0.3,-7.4,0.0
Cn1cnc(S(=O)(=O)N2CCc3ccccc32)c1,10.1,3.8%,0.677,-1.5,-0.7,.,0.1
Cc1ccccc1-n1ncc2c1CC(C)(C)CC2NC(=O)CCCN1CCCC1=O (stereo unspecified),-3.3,-2.7%,0.718,0.3,2.7,0.6,-0.1
O=S(=O)(c1ccc(Cl)nc1)N1CCc2ccccc21,0.4,.,0.637,-4.0,0.7,2.6,0.0
COc1ccc(C(=O)O/N=C(\N)c2ccc(OC)c(OC)c2)c(OC)c1,0.9,-1.9%,0.661,3.9,2.3,6.3,-0.6
CC1CCCc2sc3nc(NCc4ccco4)n4ncnc4c3c21 (stereo unspecified),-13.7,18.7%,0.758,1.1,1.4,-2.2,0.4
CC(C)(C)NC(=S)NCc1cccnc1,4.8,-7.5%,0.697,3.4,0.6,-0.4,0.0
Cc1ccc(Cl)cc1N1CCN(S(=O)(=O)c2ccc3c(c2)OCCO3)CC1,-0.9,-0.1%,0.711,-0.6,2.1,0.3,0.0
O=C(N/N=C/c1ccc[nH]1)c1cc2ccccc2cc1O,46.2*,.,.,-2.9,-3.7,.,0.5
CCc1nnc(NC(=O)c2ccc3nc(CC)c(CC)nc3c2)s1,-1.3,-4.1%,0.668,3.6,1.8,2.9,-3.1
Cc1ccc(C)c(-c2nnc(NC(=O)Cc3ccccc3)o2)c1,2.1,.,0.704,-0.5,2.4,4.7,-0.6
Cc1ncc(CN2CCC(CO)(CCc3ccccc3)CC2)s1,-2.3,11.4%,0.69,16.3*,-0.6,5.9,1.0
Cc1ccc2c(c1)N(C(=O)CCC(=O)NCCCN(C)Cc1ccccc1)CCO2,-5.4,.,0.661,0.3,-4.5,1.4,-1.1
O=C(Nc1cccnc1)Nc1ccc(F)c(Cl)c1,-4.7,24.9%,0.535*,-6.5,2.2,-0.8,-0.2
COc1ccc(S(=O)(=O)n2cnc3ccccc32)cc1,-4.5,.,0.635,-5.3,-2.9,5.3,-0.4
Cc1cc(OCC(=O)Nc2ccc3oc(-c4ccncc4)nc3c2)ccc1Cl,41.4,-30.6%,0.718,0.5,-4.4,-1.6,-0.5
CCCC(=O)NC(Nc1ccccc1OC)C(Cl)(Cl)Cl (stereo unspecified),-3.7,28.2%,0.717,-0.1,-3.0,4.3,-0.6
Cc1cc(C)c(C(=O)C(C)OC(=O)Cc2n[nH]c(=O)c3ccccc23)cc1C (stereo unspecified),-0.1,.,0.694,-0.5,-3.4,0.3,0.3
O=C(O)c1ccccc1CSc1nc2ccccc2[nH]1,1.9,.,0.68,5.3,-0.4,-0.3,-5.6
CCOc1cccc(SCc2noc(C(=O)NCCOC)c2C(=O)O)c1,-0.7,-1.2%,0.693,2.9,0.9,-0.6,1.2
O=C(NCC1CCN(c2ccc(S(=O)(=O)N3CCOCC3)cc2)CC1)c1cccc(Cl)c1,-9.8,3.7%,0.69,-4.8,5.7,0.9,0.6
CCOC(=O)N1CCN(C(=S)NC(=O)c2c(-c3c(Cl)cccc3Cl)noc2C)CC1,3.7,.,0.645,0.6,1.8,1.5,0.1
CC(=O)c1ccc(OCC(=O)NCC(c2ccco2)N2CCCCC2)cc1 (stereo unspecified),0.4,-7.8%,0.713,1.3,-1.9,2.2,-0.4
Cc1cccc(Cn2c(SCCN3CCOCC3)nc3c2c(=O)n(C)c(=O)n3C)c1,-2.1,-6.1%,0.723,-3.9,-2.0,0.7,-0.4
CCOc1ccc2nc(NC(=O)CN3CCOCC3)sc2c1,6.5,-9.7%,0.715,-0.9,6.2,1.2,0.5
CCOc1cccc2cc(C(=O)OCC(=O)Nc3c(C)cccc3CC)c(=O)oc12,-4.2,-6.0%,0.705,.,-4.2,-1.1,.
COc1ccc(N2C(=O)C3CCCN3C2=S)cc1 (stereo unspecified),-2.9,.,0.708,-4.9,-0.2,-0.3,1.2
COc1ccccc1NC(=O)C(C)OC(=O)C1COc2ccccc2O1 (stereo unspecified),-0.4,.,.,20.6*,0.3,.,-0.5
COC(=O)N/N=C\c1c(C)nn(-c2ccccc2)c1Cl,7.3,-7.3%,.,-3.0,0.1,.,-0.9
COCCNc1nc(N)c([N+](=O)[O-])c(NCC2CCCO2)n1 (stereo unspecified),0.1,?,0.677,-5.4,0.5,9.8,-0.1
Cc1ccccc1OCC(=O)NCCNC(=O)c1cccnc1,7.2,.,0.68,-1.0,1.9,3.7,0.6
COc1ccc(CC(=O)Nc2c(C(=O)N3CCN(c4ccccc4)CC3)oc3ccccc23)cc1OC,-2.3,.,0.673,-1.5,2.5,3.3,0.6
COc1ccc(C(O)P(=O)(OCCC(C)C)c2ccc(N(C)C)cc2)cc1OC (stereo unspecified),3.4,-2.6%,0.673,0.6,0.5,3.3,0.0
COc1ccc(OC)c(C2CC(=O)Nc3c2c(=O)[nH]c2ncnn32)c1 (stereo unspecified),2.2,6.7%,0.711,-2.5,1.8,-1.7,0.2
O=C(N/N=C/c1ccccc1OC(F)F)NC1CCCCC1,2.0,8.1%,.,3.2,2.0,.,-0.2

# (list continues)
SMILES,Beta2AR agonist,Vif TR-FRET,Ecoli growth,LANA-H2A inh,HNF4A DNA FP,UCH37 inh,Bfl-1 A1 inh
CCN1C(=O)[C@H]2[C@H]3CN=C(SC)N3[C@@](Cc3ccccc3)(C(=O)OC)[C@H]2C1=O,0.8,4.8%,0.668,.,2.8,-1.0,.
Cc1cccc(N2CCN(C(=O)c3c(-c4ccccc4)noc3C)CC2)c1C,-0.1,.,0.672,0.5,1.0,1.3,-0.7
COc1ccc(C)cc1NC(=O)/C=C/c1ccc(OC)c(S(=O)(=O)N2CCOCC2)c1,5.7,0.4%,0.689,2.8,-1.3,2.1,-0.8
Cc1cccc(N/C=C/C(=C(C#N)C#N)N(C)C)c1,-3.5,71.0%,0.645,-3.9,-3.4,13.0,0.1
Cn1c(CC(=O)Nc2ccccc2)nnc1SCC(=O)NC1=NCCS1,5.4,.,.,2.0,-3.3,.,0.0
N#Cc1ccc(OCc2cccc(S(=O)(=O)N3CCOCC3)c2)cc1,6.4,0.8%,0.711,-1.7,-3.6,-0.9,0.1
CC1=CC(=O)C=C(C)C1=NOC(=O)c1cccc([N+](=O)[O-])c1,0.1,?,0.737,0.0,2.2,7.1,0.1
CCOC(=O)c1c(C)[nH]c(C(=O)N/N=C/c2cc([N+](=O)[O-])ccc2O)c1C,24.6,-5.5%,.,3.5,1.7,.,0.5
COc1ccccc1NC(=O)C(=O)N/N=C(\C)CC(=O)Nc1ccc(OCc2ccccc2)cc1,0.2,26.1%,.,.,-1.2,.,-2.3
CC1(C)C(=O)Nc2ccccc2N1C(=O)COC(=O)c1ccc([N+](=O)[O-])o1,2.8,-3.0%,0.637,.,1.3,13.4,.
O=C(O)CSc1c[nH]c2ccccc12,3.1,0.3%,0.732,-1.4,-0.7,4.4,-0.1
Cc1ccc(Cn2nnc3c(=O)[nH]c(C4CCN(S(=O)(=O)c5ccccc5)CC4)nc32)cc1,-5.0,-6.2%&-0.5%,0.705,4.9,1.0,4.4,0.3
COc1ccccc1N1CCN(C2CCCN(Cc3cccc(O)c3)C2)CC1 (stereo unspecified),-4.4,.,0.639,1.0,-2.1,2.1,-0.4

# An unsorted share of the library, and some 2.1% of all compounds hit somewhere here.
